Source: PubChem BioAssay
GIV Gai3 FP = GIV-Galpha-i interaction inhibition; 0.42% of 210,000 active; P08753; Galpha-i3/FITC-GIV peptide fluorescence polarization, 90 min; hits give low values; scaled: aluminum fluoride 0%, vehicle 100%; percent of control (FP), % (test concentration not listed);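 active = replicate mean at 85% of control or lower, very high polarization wells dropped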;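 note: wells of about 15 µL received 100 nL stock; the first replicate is given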
Target sequence (P08753 whole entry, looked up): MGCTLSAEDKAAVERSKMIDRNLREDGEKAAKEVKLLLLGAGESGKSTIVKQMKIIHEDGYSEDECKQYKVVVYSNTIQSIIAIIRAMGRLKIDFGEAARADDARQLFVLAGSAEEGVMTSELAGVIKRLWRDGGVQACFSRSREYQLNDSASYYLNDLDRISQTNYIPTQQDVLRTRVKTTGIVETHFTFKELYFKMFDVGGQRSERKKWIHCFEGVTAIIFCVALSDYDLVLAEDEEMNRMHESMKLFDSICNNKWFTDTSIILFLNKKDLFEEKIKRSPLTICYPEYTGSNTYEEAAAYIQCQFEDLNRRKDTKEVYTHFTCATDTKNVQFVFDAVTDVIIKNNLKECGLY
Sa growth 42C = inhibitors of Staphylococcus aureus growth at 42 °C; S. aureus RN4220 growth, OD600, 20 h; hits give low values; relative growth, % (test concentration not listed); 0.53% of 170,000 active; AID 720641;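 active = growth at 42 °C up to 50% and 20 or more points under that at 30 °C, or under 10% at both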;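 note: 300 nL library stock went into each well; scaled to the means of positive and negative controls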
HCMV NEC inh = inhibitors of HCMV UL50-UL53 nuclear egress complex interaction; HTRF UL50-UL53 interaction, normalized percent inhibition; inhibition, % (test concentration not listed); 0.15% of 190,000 active; AID 1918969;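 active = both replicates at 50% or more, plus weaker picks with an unusually low signal ratio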;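 note: stock transfer was 100 nL into about 20 µL; 0% = negative control wells and 100% = wells with untagged competitor protein; inactives centre near -12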
Sa growth 42C second temp = also measured in Sa growth 42C; calls as there; relative growth, %; measured here: growth at 30 °C;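 optical density after 20 h as mean of two plates; 100% = untreated growth and lower means inhibition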
* marks the source's active call; other numbers are inactive results; nt = no result given; & = joins results of further samples.

SMILES	GIV Gai3 FP	Sa growth 42C	Sa growth 42C second temp	HCMV NEC inh
Cc1ccc2oc(C(=O)Nc3ccc(S(=O)(=O)N(C)c4ccccc4)cc3)cc(=O)c2c1	110	104	98	12
CCn1c(-c2ccc(F)cc2)csc1=Nc1ccc(C)cc1	100	97	98	nt
O=C(NCC(c1ccco1)N1CCCCC1)c1ccccn1 (configuration not stated)	nt	72	84	-17
CCn1c(=O)c2cc(C(=O)N(C)c3cc(C)ccc3C)sc2c2ccccc21	104	112	105	0
Cc1c(CCC(=O)NCc2cccc(Cl)c2)c(=O)oc2c(C)c(O)ccc12	96	90	89	-42
Cc1ccccc1Sc1ccccc1C(=O)O	100	122	103	0
Cc1noc(/C=C/c2ccc(F)cc2F)c1S(=O)(=O)N1CCC(C(=O)Nc2nccs2)CC1	100	nt	nt	-14
CCn1c(Cn2cccn2)nc2cc(NC(=O)c3ccc(F)cc3)ccc21	100	nt	nt	-12
COc1ccccc1N(CC(=O)Nc1ccccc1F)S(C)(=O)=O	95	106	88	-20
CC(C)(C)C(=O)/C=c1\s/c(=C\c2c(F)cccc2F)c(=O)n1CC(=O)NCc1ccco1	nt	85	86	-20
Cn1c(=O)[nH]c(=O)c2[nH]c(CN3CCOCC3)nc21	101	93	88	nt
CC(=O)Nc1cccc(-c2cnc3ccccc3n2)c1	95	96	93	-21
COC(=O)c1ccccc1NC(=O)C1CCCN(c2ncnc3onc(-c4ccc(F)cc4)c23)C1 (configuration not stated)	101	nt	nt	7
CCOc1ccccc1NC(=O)CSc1nc2c(oc3ccccc32)c(=O)n1C(C)C	104	106	82	-10
CC(SC1CCCC1)C(=O)NC(C)(C#N)C(C)C (configuration not stated)	nt	92	93	-4
COc1cc(NC(=O)c2cc(C(F)(F)F)n(C)n2)c(OC)cc1Cl	102	nt	nt	-9
CCC1CCCCN1CCCNC(=O)c1ccc2c(c1)N(Cc1cccc(Cl)c1)C(=O)c1ccccc1S2(=O)=O (configuration not stated)	101	113	50	nt
Cc1ccc(N(CC(=O)NCc2cccc(Cl)c2)S(=O)(=O)N(C)C)cc1	98	nt	nt	1
CCCc1c(-c2nc(-c3ccc(Cl)cc3)no2)cnn1-c1ccccc1	101	83	91	-7
C[C@H](NC(=O)c1ccc(C(C)(C)C)cc1)C(=O)N1CCOCC1	nt	129	89	4
Cc1cc(Br)ccc1NC(=O)CCNS(=O)(=O)c1cccc2nsnc12	100	103	83	-81
c1ccc(Nc2c3c(nc4ncnn24)CCC3)cc1	104	nt	nt	-9
O=S(=O)(NC1CCCCC1Nc1ccccc1Br)c1ccccc1 (configuration not stated)	104	78	54	nt
CCOc1ccc(CCNC(=O)Cn2ccc3cc(S(=O)(=O)N4CCCCCC4)ccc32)cc1	103	114	102	nt
CC1CC(C)CN(C(=O)CSc2n[nH]c(N)n2)C1 (configuration not stated)	nt	108	91	-18
CCCN(CC(=O)Nc1ccc(F)c(F)c1F)Cc1cc(=O)n2ccsc2n1	nt	96	92	-23
CCOc1ccc(-c2noc(CCn3c(=O)[nH]c4ccccc4c3=O)n2)cc1OC	100	nt	nt	-27
O=S(=O)(NCCc1csc(-c2ccc(F)cc2)n1)c1ccc(Cl)cc1	101	111	106	nt
COCCn1cnnc1SCC(=O)Nc1ccc(Cl)cc1F	nt	106	96	-10
OCCNCc1ccc(-c2cccc(Cl)c2)o1	104	nt	nt	-23
CCN(CC)Cc1cc(NC2=NS(=O)(=O)c3ccccc32)ccc1OC(=O)c1ccccc1	100	nt	nt	-32
O=C(Nc1ccc(Cl)cc1)NC(C(=O)O)c1ccccc1 (configuration not stated)	102	85	95	-23
CCc1c(C)nc2ncnn2c1Nc1cc(OC)cc(OC)c1	95	nt	nt	-9
CCc1ccccc1NC(=O)Cn1nnc2sc3c(c2c1=O)CCC(C(C)(C)C)C3 (configuration not stated)	101	92	88	-15
O=C(CSc1nccc(C(F)(F)F)n1)c1ccc(Br)cc1	99	86	86	-20
Cc1sc2ncnc(SCC(=O)Nc3ccc4ccccc4c3)c2c1C	104	nt	nt	-3
O=C(Nc1ccc(-c2nnc(-c3ccccc3)o2)cc1)C1CCCC1	104	98	86	-20
COc1cc(C2C3=C(CC(C)(C)CC3=O)Nc3[nH]c(=O)[nH]c(=O)c32)cc(OC)c1OC (configuration not stated)	102	90	87	-16
CCOC(=O)Nc1ccc2c(CCl)cc(=O)oc2c1	nt	104	90	-18
S=c1sc2ccccc2n1CSc1nc2ccccc2[nH]1	101	102	83	-22
O=C1CSCC(=O)N1c1ccccn1	105	102	90	-16
COc1ccccc1CNC(=O)C(=O)NCC(c1ccc2c(c1)OCO2)N1CCOCC1 (configuration not stated)	100	114	83	nt
Cc1ccc(S(=O)(=O)c2nc(-c3cccs3)oc2SCC(=O)Nc2cc(C)cc(C)c2)cc1	103	93	77	-4
CCCc1nccn1S(=O)(=O)c1cc(Br)ccc1OC	101	124	103	nt
C=CCNC(=O)c1nnn(-c2ccc3noc(-c4ccc(Br)cc4)c3c2)c1C	107	nt	nt	-18
Cc1sc2c(c1C)C(=O)/C(=C\Nc1ncccn1)S(=O)(=O)N2C	102	98	92	-27
Cc1ccc(-n2ncc3c(NCCC4=CCCCC4)ncnc32)cc1	102	136	96	nt
Cc1ccccc1C(=O)Nc1ccccc1N1CCN(C)CC1	107	105	80	-7
O=C(O)c1ccc(NC(=S)N2CCCCC2)cc1	103	117	99	-12
S=C1NNC2(CC3CC2C2CCCC32)NN1 (configuration not stated)	105	71	1	-22
Going on with the list:
SMILES	GIV Gai3 FP	Sa growth 42C	Sa growth 42C second temp	HCMV NEC inh
COc1ccc(OCc2nnc3sc(-c4cc5ccccc5[nH]4)nn23)cc1	108	nt	nt	-11
CC1CCC(NC(=O)C2(C)Cn3c(cc4occc43)C(=O)N2CCCN2CCCCC2C)CC1 (configuration not stated)	104	nt	nt	-19
COc1ccccc1-c1nnc(SCCOc2ccccc2C)o1	100	85	79	-16
O=C(CN1CCCN(Cc2ccccc2)S1(=O)=O)NCCc1ccccc1	103	97	97	3
COCCN1CCn2c(nc3cc(Nc4nnc(C)c5ccccc45)ccc32)C1	100	78	79	nt
COCCOC(=O)C1=C(C)NC(C)=C(C(=O)OCCOC)C1c1cn(-c2ccccc2)nc1-c1cccs1	103	nt	nt	-2
Cc1cc(=O)n2nc(N(C)CC(=O)NCc3ccccc3)sc2n1	104	104	88	nt
O=C(CNc1cccc(F)c1)N1CCc2ccccc2C1	nt	71	89	2
COCCCN1CC23C=CC(O2)C(C(=O)OC)C3C1=O (configuration not stated)	104	100	92	5
N#CCNS(=O)(=O)c1ccccc1	98	85	100	-26
O=C(Nc1ccc(F)cc1)C(=S)NC1CCCCC1	100	99	94	5
Cc1ccc(S(=O)(=O)N2CCN(C(=O)c3n[nH]c(=O)c4ccccc34)CC2)cc1	nt	120	103	19
Cc1cccc(Nc2nnc(-c3ccc(C)c(S(=O)(=O)NCCO)c3)c3ccccc23)c1	102	119	89	nt
COc1ccc(NC(=O)COC(=O)C23CCC(=O)N2c2ccccc2S3)cc1 (configuration not stated)	nt	85	100	-6
O=C(CCS(=O)(=O)c1cccc2nonc12)Nc1cccc(F)c1	100	130	94	-103
CC(C)NC(=O)C1c2ccccc2C(=O)N(C)C1c1cn(C)c2ccccc12 (configuration not stated)	104	89	86	-4
COc1cc2c(C(=O)N3CCN(Cc4ccccc4)CC3)c(C)n(-c3ccccc3)c2cc1Br	98	nt	nt	4
CN(Cc1nc(-c2ccccc2)no1)S(=O)(=O)c1ccccc1	96	118	94	-11
Cn1c(=O)c2sccc2n2c(CCC(=O)NC3CC3)nnc12	100	nt	nt	8
Oc1c(C(c2ccccc2F)N2CCCCC2)sc2nc(-c3ccco3)nn12 (configuration not stated)	99	157	89	nt
CN(C)CCSc1nc(O)c(-c2ccccc2)c(=O)n1-c1ccccc1	104	87	91	-7
O=C(Oc1ccc(OCc2ccccc2)cc1)c1ccc(-n2cnnn2)cc1	nt	104	88	-13
CCOc1ccc(Nc2oc(/C=C/c3cc(OC)c(OC)c(OC)c3)nc2C#N)cc1	101	106	97	-4
Cc1cccnc1-n1c(C)c(C)c2c1ncn1nc(-c3cccnc3)nc21	109	nt	nt	-16
CCCCOc1ccc(-c2nonc2NC(=O)c2ccco2)cc1	100	102	86	nt
CCOc1ccc(NC(=O)COn2nnc3ccc(S(=O)(=O)N4CCOCC4)cc32)cc1	nt	95	93	-10
CC1CCCCN1C(=O)CSc1nnc2ccccn12 (configuration not stated)	nt	103	91	-16
COc1ccc(S(=O)(=O)NCC(c2ccc(N(C)C)cc2)N2CCCC2)cc1F (configuration not stated)	99	85	85	nt
CCC(=O)N1c2ccccc2NC2=C(C(=O)CC(c3ccccc3)C2)C1c1cccc([N+](=O)[O-])c1 (configuration not stated)	100	nt	nt	-21
Cc1ccc(Cl)cc1NS(=O)(=O)c1cn(C)c(C)n1	106	nt	nt	-7
CC(C)(C)c1ccc(S(=O)(=O)N2CCCCC2C(=O)N2CCN(c3ccccc3F)CC2)cc1 (configuration not stated)	104	nt	nt	-28
O=C(c1cc(-c2cccnc2)n[nH]1)N1CCCC(C(=O)N2CCN(c3ccccc3F)CC2)C1 (configuration not stated)	101	nt	nt	-17
COc1cccc(-c2cn3c(n2)sc2cc(Cl)ccc23)c1	100	nt	nt	3
CCCn1cnc2cc(NCc3cccc(OC)c3)ccc21	109&100	100	79	-23
Cc1cc2c(=O)oc(-c3ccc(Br)cc3)nc2s1	109	nt	nt	-8
O=C(c1ccc2c(c1)CCCN2S(=O)(=O)c1ccccc1)N1CCN(c2ccc(F)cc2)CC1	102	nt	nt	-19
COc1cc(C2NC(=O)NC(C)=C2C(=O)OCCSC)cc(Br)c1O (configuration not stated)	103	nt	nt	-13
O=C(Cn1ncc2c3ccccc3n(Cc3ccccc3)c2c1=O)NCCc1ccccc1	106	93	86	-1
CC1CC(Nc2ncnc3c2cnn3C)CC(C)(C)C1 (configuration not stated)	98	82	72	-31
COc1ccc(C(=O)NCc2cc3cc(Cl)ccc3[nH]2)cc1COc1ccccc1Cl	106	105	61	nt
Cc1ccc(Cl)cc1N1CCN(CCCNC(=O)c2nnc(Cc3cccc(Cl)c3)o2)CC1	105&95	109	81	5&-14
CCOC(=O)c1ccccc1NC(=O)/C=C1/Nc2ccccc2NC1=O	101	84	85	-26
CC(CC(=O)N1CCCCCC1)c1ccccc1 (configuration not stated)	108	113	94	-10
COc1ccc(OC)c(-c2c[n+](=O)c3c(n2[O-])CCCC3)c1	nt	112	101	-11
O=C1CCCN1CCCNCc1ccc(-n2cnc3ccccc32)cc1	nt	102	86	-11
O=C(NC1CCCC1)c1oc(=O)c2ccccc2c1-c1ccccc1	95	112	97	0
Cc1c2c(n3c(nc4ccccc43)c1C#N)N(CCN1CCOCC1)CC2	97	83	90	-27
COCCNC(=O)CCCn1c(SCc2ccccc2C)nc2c(sc3ccccc32)c1=O	110	90	93	4
COC(=O)c1ccc(NC(=O)CC23CC4CC(CC(C4)C2)C3)cc1	nt	91	90	-33
COc1ccc(OC)c(S(=O)(=O)N2Cc3ccccc3CC2C(=O)Nc2ccc(C)cc2C)c1 (configuration not stated)	101	107	89	-6
(continued)
SMILES	GIV Gai3 FP	Sa growth 42C	Sa growth 42C second temp	HCMV NEC inh
CCOC(=O)c1ccc(NC(=O)Cn2nc3c(Sc4ccccc4)nc4ccccc4n3c2=O)cc1	103	nt	nt	-11
Cc1cc(=O)[nH]c(Nc2nc3ccccc3s2)n1	105	111	85	-12
O=S(=O)(c1cccc(S(=O)(=O)N2CCN(c3cnccn3)CC2)c1)N1CCOCC1	103	nt	nt	-4
COC(=O)c1cc(OC(=O)c2ccccc2Br)n(C)n1	105	107	100	-5
Cc1csc(=O)n1CN1CCN(C(=O)C2COc3ccccc3O2)CC1 (configuration not stated)	nt	94	92	5
O=C(NC1CC1)C1CCN(S(=O)(=O)Cc2ccc(F)cc2)CC1	106	nt	nt	2
